CDC25B-CDK2 inh: human CDC25B-CDK2/CyclinA binding inhibition. 94,000 tested, 0.72% active. z-score (no concentration beside the values). AID 1259370. P30305+P24941. HTRF CDC25B-CDK2/CyclinA binding, anti-His/anti-Flag; active compounds read high;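 further: score is relative to mean and SD of negative controls; strong numbers were not always called active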
HIV TAR-Tat: HIV-1 TAR-Tat binding disruption. HIV-1 TAR RNA, Tat peptide displacement FRET; active compounds read high. z-score (no concentration beside the values). 100,000 tested, 0.6% active;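 further: score is relative to mean and SD of negative controls; some compounds called inactive have numbers as strong as hits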
Numbers without * were called inactive; . = not tested or not shown; & = joins results of further samples.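 How the source made its calls: active means z-score from 3 up in half or more of its runs; inactive means the rest.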

compound | CDC25B-CDK2 inh | HIV TAR-Tat
Cc1ccc(C2SCC(=O)Nc3c2c(=O)[nH]n3C2CCCC2)cc1 (configuration not stated) | -0.52 | 1.3
O=C1NC(=O)C(C2(C3C(=O)NC(=O)NC3=O)C(=O)Nc3ccccc32)C(=O)N1 | 0.28 | .
N#CC(C#N)=Cc1ccsc1 | -2.1 | .
CCCCCCC(=O)CCCCCC/C=C/C[C@@H](O)[C@H](O)[C@@](N)(CO)C(=O)O | . | 2.1
Cc1cc(N2CCNCC2)n2ncnc2n1 | 0.1 | -0.83
CCCCOc1ccc(C2SCC(=O)Nc3c2c(=O)[nH]n3C(C)CCC)cc1 (configuration not stated) | -1.25 | 2.44
COc1ccc(Cl)cc1NC(=O)N1Cc2ccccc2-n2cccc2C1c1cccs1 (configuration not stated) | . | 0.63
Cc1ccccc1COc1ccccc1C1SCC(=O)Nc2n[nH]c(C)c21 (configuration not stated) | 0.76 | 0.17
COc1cc(C(=O)OC2CC3CCC(C2)N3C)ccc1O (configuration not stated) | . | 2.1
S=P1(NCc2ccccc2)NC(=NCc2ccccc2)c2c(nc3n2CCC3)N1 (configuration not stated) | 1.79 | .
O=c1oc2ccccc2c(O)c1C(c1ccccc1Cl)c1c(O)c2ccccc2oc1=O | -2.28 | .
CCC1c2cccn2-c2ccccc2CN1C(=O)Nc1ccc(F)cc1 (configuration not stated) | . | -0.05
NC(=O)CI | -0.21 | .
CCNCC1(c2ccc(OC)c(OC)c2)CCCC1 | -2.13 | 0.96
OCCC#CCN1CCCCC1c1cccnc1 (configuration not stated) | -0.76 | -0.26

Random excerpt: five compounds from above.
compound | CDC25B-CDK2 inh | HIV TAR-Tat
OCCC#CCN1CCCCC1c1cccnc1 (configuration not stated) | -0.76 | -0.26
CCC1c2cccn2-c2ccccc2CN1C(=O)Nc1ccc(F)cc1 (configuration not stated) | . | -0.05
CCCCCCC(=O)CCCCCC/C=C/C[C@@H](O)[C@H](O)[C@@](N)(CO)C(=O)O | . | 2.1
NC(=O)CI | -0.21 | .
CCNCC1(c2ccc(OC)c(OC)c2)CCCC1 | -2.13 | 0.96

Next part.
compound | CDC25B-CDK2 inh | HIV TAR-Tat
COc1ccc(CCNCc2ccc3c(c2)OCO3)cc1OC | -0.52 | 0.37
CCC1=Nc2cc(C(=O)N3CCC4(CC3)OCCO4)ccc2Sc2ccc(Br)cc21 | -1.36 | .
C=C1C[C@@H]2[C@H](CC[C@]3(C)C(=O)CC[C@@H]23)[C@@]2(C)C=CC(=O)C=C12 | . | -0.21
Cc1[nH]c2ccccc2c1C1=CCN(C)CC1 | -2.07 | -0.36
Clc1ccccc1C1CC(c2cccnc2)Nc2nnnn21 (configuration not stated) | . | 0.68
CC(C)=CCCC1(C)C=Cc2c(O)c3c(c(CC=C(C)C)c2O1)OC12C(=CC4CC1C(C)(C)OC2(C/C=C(/C)C(=O)O)C4=O)C3=O (configuration not stated) | . | -0.6
COC(=O)C1=C(N)Oc2c(c(=O)oc3ccccc23)C12C(=O)N(C)c1ccccc12 (configuration not stated) | -0.32 | .
c1ccc2c(CCNC3CCCCC3)c[nH]c2c1 | 0.27 | .
Cc1nn(-c2ccc(F)cc2)c2c1C(c1ccc(Br)cc1)SCC(=O)N2 (configuration not stated) | -0.92 | 0.92
COc1ccc2c(c1OC)C(=O)O[C@H]2[C@@H]1c2cc3c(cc2CCN1C)OCO3 | -2.31 | .
Cn1cnc(-n2oo2)c1C(=O)O | -1.27 | .
Cc1[nH]nc2c1C(c1cccs1)SCC(=O)N2 (configuration not stated) | -0.98 | 1.47
COc1ccc2c(c1O)-c1c(OC)c(OC)cc3c1[C@H](C2)N(C)CC3 | . | 2.15&0.02
CC12C=CC(=O)C=C1CCC1C2CCC2(C)C(=O)CCC12 (configuration not stated) | 0.31 | .
CN1C(=O)C([N+](=O)[O-])C(=O)N(C)C1=O | -0.96 | .
C=CCOc1ccc(C2SCC(=O)Nc3c2c(C)nn3-c2nc3ccccc3s2)cc1OC (configuration not stated) | -4.65 | 0.06
C=CCN1CC[C@]23CCCCC2[C@H]1Cc1ccc(O)cc13 (some centres not stated) | -0.59 | .
CN1C2CCC1CC(n1cccc1)C2 (configuration not stated) | -0.9 | .
O=C1C2CCN(CC2)C1Cc1ccc2ccccc2c1O (configuration not stated) | -1.03 | 0.73
Cc1nc2ccccc2c(=O)n1-c1ccc(Br)cc1 | -0.29 | 0.3
Cc1[nH]nc2c1C(c1ccccc1OCc1ccccc1)SCC(=O)N2 (configuration not stated) | 0.18 | 2.75
CNc1ccc(Br)cc1C(=O)c1ccc(Cl)cc1 | 0.78 | 0.45
O=C1CC(=O)N(Cc2ccccc2)C(=O)N1 | -1.39 | .
CCCC12CNCC(C)(CNC1)C2=O | -1.65 | .
CC1(C)SC(c2cccnc2)N[C@H]1C(=O)O (some centres not stated) | -0.51 | .
O=S(=O)(c1ccccc1)N1CN2CCN(C2)C1 | -2.33 | .
CC1(C)CC(n2[nH]c(=O)c3c2NC(=O)CSC3c2ccc(OCc3ccccc3)cc2)CCO1 (configuration not stated) | -1.02 | 1.89
O=S1(=O)N(Cc2ccccc2)CCCN1Cc1ccccc1 | . | 0.5
CN(C)CCc1ccc(O)cc1 | . | 2.99
O=C1NC(=O)C(=Cc2ccc(O)cc2)C(=O)N1 | -3.79 | .

The results go on:
Values run as follows: CDC25B-CDK2 inh	HIV TAR-Tat
> Cc1cc(C)nc(-n2nc(C)c3c2NC(=O)CSC3c2ccccc2F)n1 (configuration not stated)
 : -1.41	0.89
> OC(c1ccccc1)(c1ccccc1)C1CCCN1 (configuration not stated)
 : -2.29	.
> O=C1CSC(c2ccc(Br)cc2)c2c(n(C3CCCCC3)[nH]c2=O)N1 (configuration not stated)
 : -0.94	0.23
> CCN1CCN(c2ccc(N)cc2)CC1
 : .	-0.02
> N#CC[N+]12CCN(CC1)CC2
 : -0.78	.
> O=C(CC[N+](=O)[O-])OC[C@H]1O[C@@H](O)[C@H](OC(=O)CC[N+](=O)[O-])[C@@H](OC(=O)CC[N+](=O)[O-])[C@@H]1OC(=O)CC[N+](=O)[O-]
 : .	-0.15
> C[C@]12Cc3cn4c(nc3C=C1CCC1C2CC[C@@]2(C)[C@H]1CC[C@@]2(O)C#N)nc1ccccc14 (some centres not stated)
 : -0.63	.
> Cc1cc(C)[n+]2nc(-c3ccccc3)oc2n1
 : -0.17	.
> CN1CCC2=NN(c3ccccc3)C(=O)C2C1 (configuration not stated)
 : -1.54	.
> Cn1c(N2CCNCC2)nc2ccccc21
 : -0.72	0.88
> O=C1CN=C(c2ccccc2Cl)c2cc(Cl)ccc2N1Cc1cc(=O)n2ccccc2n1
 : -0.61	.
> Cc1ccccc1-n1nc(C)c2c1NC(=O)CSC2c1ccccc1 (configuration not stated)
 : -2.7	2.93
> CN(C)C(=NP(=S)(c1ccccc1)c1ccccc1)N(C)C
 : -1.68	.
> CSc1nnc([C@@H](N)Cc2ccccc2)o1
 : -0.43	-0.41
> c1cncc(C2CCCCN2)c1 (configuration not stated)
 : .	1.32&2.71
> Cc1cc(C)nc(-n2nc(C)c3c2NC(=O)CSC3c2ccc(OCc3ccccc3)cc2)n1 (configuration not stated)
 : -0.33	0.29
> CCOC(=O)CC(SP(=S)(OC)OC)C(=O)OCC (configuration not stated)
 : .	0.45
> Cc1[nH]nc2c1C(c1ccc(F)cc1)SCC(=O)N2 (configuration not stated)
 : 1.37	0.33
> CCN1CCN(c2ncc3c(=O)[nH]ccc3n2)CC1
 : -0.88	1.25
> CCOP(=S)(OCC)SCn1c(=O)oc2cc(Cl)ccc21
 : 0.63	0.55

The closing 2 entries of the section before are carried over, then new ones follow:
Values run as follows: CDC25B-CDK2 inh	HIV TAR-Tat
> CCN1CCN(c2ncc3c(=O)[nH]ccc3n2)CC1
 : -0.88	1.25
> CCOP(=S)(OCC)SCn1c(=O)oc2cc(Cl)ccc21
 : 0.63	0.55
> Cc1nn(-c2nc3ccccc3s2)c2c1C(c1ccccc1)SCC(=O)N2 (configuration not stated)
 : -1.33	0.78
> NCCc1cc(O)c(O)cc1O
 : .	28.9*
> CC(=O)CC(c1ccccc1)c1c(OC(C)=O)c2ccccc2oc1=O (configuration not stated)
 : -2.63	.
> C[C@@H]1CC[C@@]2(NC1)OC1C[C@H]3C4CC=C5CC(O)CCC5(C)C4CCC3(C)C1[C@@H]2C (some centres not stated)
 : -2.18	.
> CC1CCC(c2nnnn2-c2ccccc2)(N2CCOCC2)CC1 (configuration not stated)
 : .	1.76
> Cn1cnc(CCN)c1
 : -1.64	.
> COc1ccccc1Oc1c(C)oc2cc(OC(=O)N(C)C)ccc2c1=O
 : 0.19	0.8
> CN1C(=O)C(Cc2ccc3c(c2)OCO3)C(=O)N(C)C1=O
 : -2.75	-0.31
> CCC12CN3CC(CC)(CN(C1)C3c1c(C)[nH]c(=O)[nH]c1=O)C2=O (configuration not stated)
 : 0.71	-1.6
> Cc1ccc(C2c3c(c4ccccc4oc3=O)Oc3c2c(=O)oc2ccccc32)cc1
 : -3.69	.
> C/C=C(\C)C(=O)Nc1ccc(Cl)cc1C(=O)c1ccccc1
 : -1.69	.
> CN(C)c1ccc(S(=O)(=O)F)cc1
 : -1.34	.
> O=C1CN=C(c2ccccc2)c2oc3ccccc3c2N1
 : -0.76	0.88
> CC12CCC3C(CC=C4CC(O)CCC43CO)C1CCC2OC(=O)c1ccccc1 (configuration not stated)
 : 0.83	.
> C[N+]1(C)C2CCC1CC(OC(=O)C(CO)c1ccccc1)C2 (configuration not stated)
 : -1.43&0.58	.
> C=CCOc1c(OC)cccc1C1SCC(=O)Nc2n[nH]c(C)c21 (configuration not stated)
 : -0.49	1.26
> Fc1ccc(CCNCc2ccco2)cc1
 : 0.46	0.78
> COc1ccc(NC(=S)NNC(=O)C2(O)CN3CCC2CC3)cc1 (configuration not stated)
 : -2.29	.
> O=C(CN1CC2CC(C1)c1cccc(=O)n1C2)c1ccc2cc[nH]c2c1 (configuration not stated)
 : -0.1	1.74
> COCc1cc(OC(=O)N(C)C)nc(-c2cccc(C)c2)n1
 : -1.09	.
> COCCOC(=O)C1=C(C)OC(N)=C(C#N)C12C(=O)Nc1ccccc12 (configuration not stated)
 : -1.6	.
> CCOC(=O)c1cccc([P+](=O)O)c1
 : -0.43	.
> CCN(CC)CCOC(=O)C(O)(c1ccccc1)c1ccccc1
 : .	-1.29
> Cc1ccccc1CN1CCCN(Cc2ccccc2)S1(=O)=O
 : .	2.37
> Cc1ccccc1CN1CCCN(Cc2cccc(Cl)c2)S1(=O)=O
 : .	-0.44
> CSc1ccc(C2c3cccn3-c3ccccc3CN2C(=O)NC(C)C)cc1 (configuration not stated)
 : .	0.02
> CSc1ccc(C2SCC(=O)Nc3c2c(C)nn3-c2ccc(F)cc2)cc1 (configuration not stated)
 : 0.01	0.71
> CC[C@H]1[C@@H]2C[C@H]3[C@@H]4N(C)c5ccccc5[C@]45C[C@@H]([C@@H]2[C@H]5O)N3[C@@H]1O
 : .	3.11
> CCCCCCn1cc(C(=O)c2cccc3ccccc23)c2ccccc21
 : .	0.79
> O=C1C2CCN(CC2)C12CC2c1ccc(C(F)(F)F)cc1 (configuration not stated)
 : -1.38	.
> Cc1cc(C)nc(-n2nc(C)c3c2NC(=O)CSC3c2ccc(O)cc2)n1 (configuration not stated)
 : 0.63	0.42
> COc1cc2c3c(c1O)-c1c(cccc1OC)CC3N(C)CC2 (configuration not stated)
 : -0.03	-10.8
> CC1c2cccn2-c2ccccc2CN1C(=O)Nc1ccc(F)cc1F (configuration not stated)
 : .	0
> CC[C@@]1(O)C(=O)OCc2c1cc1n(c2=O)Cc2cc3ccccc3nc2-1
 : -0.28	-0.11
> C=CCC1NC2CC(C)C1c1ccccc12 (configuration not stated)
 : -2.36	.
> CSc1ccc(C2SCC(=O)Nc3c2c(C)nn3-c2ccc(C)cc2)cc1 (configuration not stated)
 : -1.74	1.1
> Cc1ccc(C2SCC(=O)Nc3c2c(C)nn3C2CCOC(C)(C)C2)cc1 (configuration not stated)
 : 0.33	0.32
> Cc1nn(-c2ccccc2)c2c1C(c1ccc(F)cc1F)SCC(=O)N2 (configuration not stated)
 : -0.44	0.86
> O=S1(=O)N(CCN2CC=C(c3c[nH]c4cc(F)ccc34)CC2)c2cccc3c2N1CCC3
 : -0.5	.
> CCC(=O)O[C@H]1CCC2C3CCC4=CC(=O)CC[C@]4(C)C3CC[C@@]21C (some centres not stated)
 : .	-1.43

Another view of 4 compounds above:
Compound: CN1CCC2=NN(c3ccccc3)C(=O)C2C1 (configuration not stated)
- CDC25B-CDK2 inh: -1.54
- HIV TAR-Tat: .
Compound: Cn1c(N2CCNCC2)nc2ccccc21
- CDC25B-CDK2 inh: -0.72
- HIV TAR-Tat: 0.88
Compound: O=C1CN=C(c2ccccc2Cl)c2cc(Cl)ccc2N1Cc1cc(=O)n2ccccc2n1
- CDC25B-CDK2 inh: -0.61
- HIV TAR-Tat: .
Compound: Cc1ccccc1-n1nc(C)c2c1NC(=O)CSC2c1ccccc1 (configuration not stated)
- CDC25B-CDK2 inh: -2.7
- HIV TAR-Tat: 2.93

Next structures:
Values run as follows: CDC25B-CDK2 inh	HIV TAR-Tat
> CCN1CCN(c2cc(C)nc(C)n2)CC1
 : -0.57	1.46
> COc1ccc(C2C3C(=NN2C(C)=O)C2CCN3CC2)cc1OC (configuration not stated)
 : -0.94	1.91
> C=CCOC(=O)C1=C(C)OC(N)=C(C(=O)OC)C12C(=O)N(CC(=O)OC)c1ccccc12 (configuration not stated)
 : -0.66	.
> OC12CN3CN(CN(C3)C1)C2
 : -2.51	.
> c1ccc(CNCCc2c[nH]c3ccccc23)cc1
 : 1.29	-0.73
> C[C@]12CC[C@H](O)CC1=CC[C@@H]1[C@@H]2CC[C@]2(C)C(=O)CC[C@@H]12
 : .	0.74
> Fc1ccc(CN2CCN(Cc3cccc(F)c3)CC2)cc1
 : -0.84	.
> O=C1NC(=O)C(Cc2ccccc2)(Cc2ccccc2)C(=O)N1
 : -1.74	1.8
> c1ccc2c(N3CCNCC3)cccc2c1
 : -0.74	.
> Cc1[nH]nc2c1C1(CCN(C)CC1)C(C#N)=C(N)O2
 : -2.03	.
> CCOC(=O)C1(O)c2ccccc2-c2ccccc21
 : -2.04	1.74
> CC12CN3CC(C)(CN(C1)C3c1ccco1)C2=O (configuration not stated)
 : -0.65	.

Screening results from PubChem BioAssay.

These rows are one share of the data. The share of hits here may be higher or lower than overall.
